Beta2AR agonist = beta2AR agonists driving receptor internalization, primary screen, cell-based, FAP fluorogen, flow cytometry; Am2.2-beta2AR cells; reference of the scale not given here; response, % (no concentration beside the values); Beta-2 adrenergic receptor (Homo sapiens), P07550; 340,000 compounds, 0.43% hits;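 active = response above a set limit, near 3 SD of response in nonfluorescent compounds, cut at about 42% in these data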;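 also: stock transfer was 100 nL into about 11 µL; a reference agonist was the positive control; negative values mostly stem from fluorescent compounds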
Target sequence (P07550 whole entry, looked up): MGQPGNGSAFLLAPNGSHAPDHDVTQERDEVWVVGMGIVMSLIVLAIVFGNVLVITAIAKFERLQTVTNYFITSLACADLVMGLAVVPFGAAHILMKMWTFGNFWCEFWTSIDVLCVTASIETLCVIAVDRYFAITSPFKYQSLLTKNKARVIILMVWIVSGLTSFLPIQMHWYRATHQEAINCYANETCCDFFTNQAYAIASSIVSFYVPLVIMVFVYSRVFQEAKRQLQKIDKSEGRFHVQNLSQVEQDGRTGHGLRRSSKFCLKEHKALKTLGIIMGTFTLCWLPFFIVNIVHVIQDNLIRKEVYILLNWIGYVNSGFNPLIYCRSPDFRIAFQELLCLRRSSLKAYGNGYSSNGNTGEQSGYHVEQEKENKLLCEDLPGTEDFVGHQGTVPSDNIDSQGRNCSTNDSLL
RanGTP-Impb inh = inhibitors of RanGTP-importin-beta interaction, primary screen, biochemical, FRET, CFP-Ran, YFP-importin-beta, homogeneous | 300,000 compounds, 1.1% hits | cell-free CFP-Ran/YFP-importin-beta FRET ratio | Ran GTPase (GTP-bound) - importin-beta complex | inhibition, % (concentration not given with the values);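 active = most replicates above 15%; inconclusive = exactly half above 15%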;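 also: 0% = DMSO wells and 100% = Ran loaded with GDP instead of GTP; wells of about 40 µL received 100 nL stock; the first replicate is given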
Calb FLC = C. albicans growth inhibition with fluconazole, primary screen, CaCi-2 strain, Alamar Blue fluorescence; 300,000 compounds, 0.57% hits; AID 1979, 2009; growth inhibition, % (no concentration beside the values); C. albicans CaCi-2 (fluconazole-resistant clinical isolate) + fluconazole, 48 h;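 active = most replicates above 75%; inconclusive = exactly half above 75%; inactive = most below 75%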;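 also: all wells also contain fluconazole at 8 µg/ml as a sub-toxic cotreatment; 0% = median of DMSO wells and 100% = median of geldanamycin control wells; wells of about 8 µL received 7.5 nL stock; the first replicate is given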
Bfl-1 A1 inh = caspase 3/7 activation in MEF A1-2A-BIM cells, primary screen, A1 inhibitor project, cell-based, luminescence, HTS; Caspase-Glo 3/7 luminescence, 3 h; percent of clofoctol response, vehicle zero; caspase activation, % (concentration not given with the values); 330,000 compounds, 0.066% hits; AID 2462, 2010;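 active = over half of replicate activation scores above 10%, or exactly half above 10 with the replicate mean above 10; inconclusive = replicate mean below 10 yet half the replicates above 10; inactive = over half of replicates below 10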;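 also: wells of about 30 µL received 50 nL stock; many hits fall short of the cut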
LANA-H2A inh = blockers of LANA interaction with H2A/H2B – biochemical, FP readout, HTS, primary screen | cell-free LANA-H2A/H2B peptide, fluorescence polarization | Protein LANA1 (Human herpesvirus 8 type P (isolate GK18)), Q9QR71 | AID 2629, 2010 | inhibition, % (concentration not given with the values) | 320,000 compounds, 0.6% hits; in the data active = inhibition mostly above about 10%, no sharp cut-off; inactive = mostly below about 6.7%;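 also: stock transfer was 7.5 nL into about 10 µL; 0% = median of vehicle wells and 100% = median of positive control wells; one replicate is shown; the record names a cut of 25% in any replicate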
Beta cell apopt = inhibitors of cytokine-induced beta cell apoptosis, primary screen, luminescence; INS-1E cytokine-induced death, ATP luminescence, 48 h; percent of positive-control rescue, neutral wells zero; protection from apoptosis, % (test concentration not listed); 300,000 compounds, 0.8% hits; AID 435005, 2010;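 active = all replicates at 75% or more, or half of them and the mean; inconclusive = half reach 75% but not the mean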;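 also: 0% = cytokine-treated negative control wells and 100% = positive control rescue; higher means more ATP so stronger rescue from cytokine killing; wells of about 40 µL received 100 nL stock; the first replicate is given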
UCH37 DUB inh = inhibitors of human UCH37 deubiquitinase, primary screen, biochemical, Ub-AMC cleavage, fluorescence. AID 588478, 2011. purified proteasome/UCH37. inhibition, % (concentration not given with the values). 330,000 compounds, 0.33% hits;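 active = mean of two replicates above 20%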;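 also: 0% = compound-free wells with enzyme and 100% = wells lacking proteasome; stock transfer was 100 nL into about 20 µL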
Target sequence (Q9Y5K5 whole entry, looked up): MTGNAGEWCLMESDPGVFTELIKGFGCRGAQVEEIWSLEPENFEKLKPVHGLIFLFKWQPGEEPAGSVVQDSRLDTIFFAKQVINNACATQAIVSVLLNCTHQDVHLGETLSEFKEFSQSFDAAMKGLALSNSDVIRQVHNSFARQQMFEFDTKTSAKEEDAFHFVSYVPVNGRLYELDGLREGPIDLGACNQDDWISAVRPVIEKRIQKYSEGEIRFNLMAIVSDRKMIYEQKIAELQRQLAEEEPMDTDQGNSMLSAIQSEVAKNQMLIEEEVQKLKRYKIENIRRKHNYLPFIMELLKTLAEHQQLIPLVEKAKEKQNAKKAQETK
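Signal – fluorescence, ex 355 nm, em 460 nm · System – Proteasome-bound UCH37 · Input – 0.15 nM proteasome as dispensed · Timing – 30 min preincubation with enzyme, 25 min cleavage at room temperature · Read-out basis – percent inhibition of cleavage signal versus uninhibited and no-proteasome wells · Medium – Tris-HCl pH 7.4 with ATP-MgCl2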
T cruzi inh = inhibitors of intracellular T. cruzi growth, primary screen, luminescence, NIH3T3 host cells | T. cruzi beta-gal in NIH3T3, 90 h | inhibition, % (no concentration beside the values) | 300,000 compounds, 1.4% hits;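 active = mean inhibition across valid replicates above about 55%, limit read from the data; inconclusive = mean below that limit but half or more replicates reach it; inactive = mean below it, under half of replicates reach it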;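 also: signal also drops with host cell toxicity which is not excluded here; 0% = plate median of DMSO wells and 100% = zero luminescence signal; higher percent means less beta-gal luminescence so fewer parasites; stock transfer was 50 nL into about 50 µL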
* hit, by the source's call; i = inactive; ? = inconclusive; nt = not tested or not shown; & = joins results of further samples.

SMILES	Beta2AR agonist	RanGTP-Impb inh	Calb FLC	Bfl-1 A1 inh	LANA-H2A inh	Beta cell apopt	UCH37 DUB inh	T cruzi inh
CCCN(CCC)C(=O)c1cc2c(=O)[nH]c3ccc(C)cc3c2s1	-20.0	-1.5	57.1	-0.1	1.3	4.2	-40.5	17.4
CC(Oc1ccc2c(c1)oc(=O)c1ccccc12)C(=O)NCCN1CCOCC1 (stereo not given)	-5.0	4.1	-2.8	0.5	3.5	1.1	-255.6	-11.2
Cc1sc2nc(-c3cccnc3)nc(Cl)c2c1-c1ccccc1	13.3	-2.0	1.2	-0.5	1.0	-6.3	0.4	19.9
CCC1(C)Cc2ccccc2-c2nc(NCCO)n(-c3ccccc3)c(=O)c21 (stereo not given)	3.4	3.0	-1.2	0.3	4.3	-2.7	i	8.8
COc1ccc2nc(NC(=O)CSc3nnc4n3C(C)(C)Cc3ccccc3-4)sc2c1	-1.1	0.2	-6.4	-0.1	-1.8	-1.0	-1.7	4.2
CCCc1c(C(=O)N/N=C(\C)c2ccc(O)cc2)nnn1-c1nonc1N	0.4	-2.3	2.3	-0.2	9.2	-4.8	nt	-17.0
O=C(COc1ccccc1)OCC(=O)c1c[nH]c2ccccc12	9.9	nt	nt	1.0	0.1	-2.0	0.7	nt
CCOC(=O)C1=C(CSc2nccn2C)NC(=O)NC1c1ccc(OC)cc1 (stereo not given)	0.4	1.4	48.3	0.4	-1.1	-1.1	-0.6	-1.4
COc1ccccc1-c1cc(C(=O)N/N=C/c2sccc2C)c2ccccc2n1	8.5	0.3	0.4	-0.8	6.1	17.7	nt	12.8
O=C(Nc1cccnc1)c1cc([N+](=O)[O-])ccc1Cl	1.4	2.0	6.3	0.2	-2.5	-8.7	3.1	-3.5
Cc1csc2ncnc(NC3CCN(Cc4ccccc4)CC3)c12	-1.9	19.3*	73.4	-0.9	4.2	107.4*	5.2	9.2
COc1cccc(OC)c1C1=NC(C)(C)CO1	-7.8	1.2	-6.1	-0.7	-5.1	-6.6	0.7	-19.8
Cc1nc(C#N)c(NCc2ccc3c(c2)OCO3)o1	0.7	-0.2	12.9	-0.3	-10.7	-5.0	0.5	-17.7
O=C(NC(=S)NCc1ccccc1)c1cccc(Cl)c1	-14.7	-1.7	-39.2	1.0	0.1	-3.6	1.3	0.4
O=C(NCCOc1ccccc1F)C1CCC(=O)N(CC2CCCCC2)C1 (stereo not given)	-4.0	?	-5.2	nt	nt	nt	0.1	-17.6
Cc1cc(C(=O)N/N=C/c2ccc[nH]2)no1	3.0	-1.9	9.4	0.2	0.4	-11.3	nt	9.2
N[C@@H](Cc1ccc(O)cc1)c1nnc([C@H](CO)NC(=O)C2CCNCC2)o1	-0.9	?	5.3	-0.3	1.5	-0.9	3.1	-6.4
CCN1C(=O)CC(Sc2ccccc2C(=O)O)C1=O (stereo not given)	-4.4	?	1.0	-0.6	1.0	-4.9	2.8	-12.2
COC(=O)c1ccc(NC(=O)Nc2ccc(OC)cc2)cc1	9.0	-2.8	9.4	0.2	1.1	-2.9	1.7	9.8
COc1ccc(CN2CCc3c([nH]c4ccccc34)C2)cc1Br	9.6	-3.2	2.5	0.2	-8.0	-7.6	3.1	26.7
O=C(Nc1ccc2ncccc2c1)c1ccccc1Cl	1.9	3.0	-10.8	0.5	6.2	-8.9	2.3	-16.6
Brc1ccc2[nH]c3c(N4CCc5ccccc5C4)ncnc3c2c1	nt	1.0	-4.6	0.9	-2.2	61.2	-6.2	47.1
O=C(Cc1ccc(Cl)cc1)Nc1ccc(S(=O)(=O)N2CCOCC2)cc1	-2.9	3.6	6.5	-0.1	4.9	-2.9	3.6	6.2
COC(=O)[C@]1(C)CCC[C@@]2(C)C3CC[C@@]4(C)C[C@]3(CCC21)CC4=NO (stereo not given in full)	1.2	nt	nt	?	-2.0	4.1	4.0	nt
CCc1ccccc1NS(=O)(=O)c1ccc(OC)c2ncccc12	2.0	-1.0	31.4	0.0	-0.4	-5.2	4.9	-9.9
SMILES	Beta2AR agonist	RanGTP-Impb inh	Calb FLC	Bfl-1 A1 inh	LANA-H2A inh	Beta cell apopt	UCH37 DUB inh	T cruzi inh
COC(=O)COc1ccc2cccc(-n3cnnn3)c2c1	15.8	0.3	11.8	0.0	-0.5	-3.6	-2.2	-11.7
O=[N+]([O-])c1ccc(CNc2ccc(Cl)cc2)s1	7.5	-2.3	-8.9	-0.5	10.6	5.6	4.1	-4.6
COc1ccccc1NC(=O)CCCC(=O)OCC(=O)c1ccc(F)cc1	1.4	-0.2	-10.4	1.3	-6.7	-5.8	2.8	5.0
Cc1cc(C)c(NC(=O)C(=O)NCc2ccco2)c(C)c1	-7.2	0.7	16.7	0.7	7.3	-2.9	2.7	-0.5
Nc1nc(SCC(=O)Nc2cccc([N+](=O)[O-])c2)n[nH]1	-0.2	nt	nt	-1.1	4.0	0.7	0.4	nt
O=C(CCc1nnc(-c2ccc3c(c2)OCO3)o1)NC(c1cccnc1)C(F)(F)F (stereo not given)	-3.0	-0.1	-6.0	0.4	1.8	6.8	-1.5	nt
CCCn1nnc(NC(=O)/C=C/c2ccccc2)n1	5.1	-1.4	-1.4	-0.5	0.6	1.1	2.8	-92.2
CCN(CC)CCCN(Cc1cc2cc(OC)ccc2[nH]c1=O)C(=O)Nc1ccc(F)cc1	0.0	-1.5	-4.9	0.7	-4.9	-1.8	-7.7	9.1
CCOc1ccc(CCNC(=O)CSc2cc(=O)n(CC)c3ccccc23)cc1OCC	-11.8	5.4	9.6	0.4	1.0	1.8	6.3	-2.3
CCCCNC(=S)N/N=C/c1sccc1C	-8.2	4.1	-26.1	-0.4	2.3	-2.0	nt	10.4
Cc1nnc(NC(=O)CN2CCN(Cc3ccc(F)cc3Cl)CC2)s1	-1.8	-0.4	-5.7	0.1	2.6	6.1	1.8	38.9
Cc1ccc(CNC(=O)c2c(-c3ccccc3)sc3ccccc23)o1	-3.8	nt	nt	0.1	-7.2	-5.3	2.7	nt
Cc1ccc2cccc(OCc3cccc([N+](=O)[O-])c3)c2n1	0.5	0.6	-6.6	2.1	-4.1	-3.9	1.0	12.6
O=C(CN(CCc1ccccc1)C(=O)CN1C(=O)COc2ccccc21)NCc1ccco1	1.0	-3.7	11.4	0.1	0.8	-8.7	1.8	0.4
N#CC1(c2ccccc2)CCC(=O)N1Cc1ccccc1 (stereo not given)	3.7	6.5	-5.5	-0.4	5.6	-5.5	2.0	-4.8
O=S(=O)(/N=C(/Nc1nc2ccccc2s1)c1ccccc1)c1ccccc1	8.7	nt	nt	-1.3	-1.8	1.5	-14.7	nt
O=C(Nc1ccc(Cl)cc1)c1nc[nH]c1C(=O)N1CCN(c2ccccc2)CC1	0.7	nt	nt	0.9	1.3	-5.4	-0.5	nt
O=C(COc1ccc(F)cc1)N1CCCc2ccccc21	-0.3	0.1	-1.6	-1.6	-3.8	-5.4	-1.1	4.3
CCN(CC)CCCn1c2c(c(SCC(=O)Nc3ccc4c(c3)OCCO4)nc1=O)CCC2	6.0	-1.4	-11.0	-0.2	1.3	0.1	4.0	2.2
COc1ccc(-c2noc(CSc3nc4sc(C)c(C)c4c(=O)n3-c3ccccc3)n2)cc1	-4.3	0.3	-19.0	0.2	-3.5	5.5	-0.7	12.6
O=C(CCC(=O)Nc1ccc(Br)cc1)N/N=C/c1ccc(F)cc1	-4.1	-4.7	1.7	0.2	3.0	-10.9	nt	2.8
Cc1ccc(C2=NS(=O)(=O)N(C)C(C(=O)NCc3cccs3)=C2)cc1	-4.6	5.4	41.1	0.0	-3.5	2.4	5.7	-6.6
CC(=O)c1ccc(S(=O)(=O)N2CCN(C(C)C(=O)N(C)Cc3ccccc3)CC2)cc1 (stereo not given)	-8.7	nt	nt	0.3	-7.0	0.4	nt	nt
O=C(COC(=O)[C@@H]1CCCN1S(=O)(=O)c1ccc(Cl)cc1)NC1CC1	3.0	1.2	-5.2	0.6	-2.0	2.8	3.3	-12.5
COc1ccc2ccccc2c1/C=N/N1C(=O)CSC1=S	-4.4	1.3	29.8	0.4	1.1	1.7	nt	-11.6
SMILES	Beta2AR agonist	RanGTP-Impb inh	Calb FLC	Bfl-1 A1 inh	LANA-H2A inh	Beta cell apopt	UCH37 DUB inh	T cruzi inh
Clc1ccc(OCc2nn3c(-c4ccco4)nnc3s2)c(Cl)c1	-12.6	0.1	-2.3	-0.3	-2.4	9.7	4.5	-10.8
COCc1ccc(CN2CCCC(CCC(=O)NCc3ccc(C)o3)C2)o1 (stereo not given)	5.2	-3.0	-1.2	0.0	-1.5	-4.8	1.4	36.5
Cc1ccc(C(=O)OCC(=O)NCc2cc(C)c(O)c(C)c2)cc1S(=O)(=O)N1CCCCC1	0.6	nt	nt	0.6	0.2	-2.0	0.0	nt
CCC(C)NC(=O)Cn1cnc2sc(C)c(S(=O)(=O)N3CCN(c4ncccn4)CC3)c2c1=O (stereo not given)	-3.4	0.6	16.0	0.3	1.6	1.4	-2.2	-15.1
CCOC(=O)c1sc2nc(CC(=O)OC)nc(NCCN(CC)CC)c2c1C	-1.9	2.9	27.3	-0.2	4.1	1.5	-100.6	5.7
COc1ccc(C2Nc3ccccc3C(=O)N2c2ccccc2)cc1CSc1ccccn1 (stereo not given)	8.7	0.9	-8.1	-0.8	5.6	-6.7	-91.9	17.1
CC1=CC(=O)c2ccccc2C1=O	23.4&4.0	2.3	nt	0.5&-0.1	-7.9&1.6	-6.6&4.2	4.9&2.5	-0.9
Cc1cccc(C(=O)Nc2ccccc2C(=O)Nc2ccc(C(=O)O)cc2)c1	5.3	0.8	-8.4	-1.7	2.2	-3.8	4.3	-6.0
COc1cccc(NC(=S)N(Cc2ccco2)C(C)c2ccco2)c1 (stereo not given)	5.1	1.0	0.8	0.8	3.4	-3.4	4.2	-6.3
COc1ccc(-c2nc(=S)c3ccc4ccccc4c3[nH]2)cc1	-6.0	6.2	1.0	nt	nt	nt	6.4	6.7
O=C1CN(C(=O)CC2c3ccccc3-c3ccccc32)CC(=O)N1	6.1	-3.3	1.1	0.2	1.2	nt	-1.4	-11.6
CCCCCCCCNC(=O)/C(C#N)=C/c1ccc(SC)cc1	2.2	4.1	4.2	1.8	-2.9	-4.3	4.8	8.1
CCCc1ccc2oc(C(=O)N3CCN(CCC(N)=O)CC3)c(C)c2c1	-6.4	4.8	0.4	1.0	1.0	nt	1.1	-7.4
CN(C(=O)c1ccc(NC(=O)Cc2ccc([N+](=O)[O-])cc2)cc1)C1CCCC1	-0.4	nt	nt	1.7	0.3	0.9	2.2	nt
O=C(c1ccc(NC2=NC3CS(=O)(=O)CC3S2)cc1)N1CCN(c2ccccc2)CC1 (stereo not given)	2.5	1.9	3.1	nt	-1.2	-1.0	4.0	4.2
Cc1ccc(OCCNC(=O)C2CC(=O)N(Cc3ccccc3)C2)cc1 (stereo not given)	-4.0	nt	nt	-0.8	16.7	-3.3	-0.2	nt
